High-throughput results (PubChem BioAssay)
BRCA1 expr up – increases BRCA1 expression | MCF7-BRCA1-FFLuc reporter, luminescence, 48 h; response scale: scaled: vehicle 0%, 10 µM genistein 100% | Potency, µM (titrated, usually from 46.1 µM), for the others: at the highest dose activation, actives largely listed as activators | 380,000 tested, 1.1% active; further: nearly all actives have a fitted effect of over 80% in size; some results filed as inactive show a strong effect at the top dose
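Luminescence from a BRCA1-driven firefly luciferase in MCF7 cells was read after 48 h compound exposure at 37 C. Data normalized against DMSO and a 10microM genistein activation control, then curve-fitted across the titration.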
MBNL1 CUG block – MBNL1-poly(CUG) RNA binding inhibition; Q9NR56; Potency, µM (series often up to 57.5 µM), for the others: at the highest dose activity change, negative = inhibition, most hits filed as inhibitors; AID 2675; TR-FRET MBNL1-His/biotin-(CUG)12 binding, 665/545 ratio; 280,000 tested, 0.036% active; active means well fitted inhibition curve with a large enough effect in the signal ratio, with a control signal flat, not every such curve was filed as active; inconclusive means small, poorly fitted or top-dose-only effect, or effect the other way, or a change in a side signal; inactive means no such curve, though single readings can be large or run the other way; the % refers to the signal ratio; further: on the % scale 0 is the no-effect control and ±100 the full control effect
Target sequence (Q9NR56 whole entry, looked up): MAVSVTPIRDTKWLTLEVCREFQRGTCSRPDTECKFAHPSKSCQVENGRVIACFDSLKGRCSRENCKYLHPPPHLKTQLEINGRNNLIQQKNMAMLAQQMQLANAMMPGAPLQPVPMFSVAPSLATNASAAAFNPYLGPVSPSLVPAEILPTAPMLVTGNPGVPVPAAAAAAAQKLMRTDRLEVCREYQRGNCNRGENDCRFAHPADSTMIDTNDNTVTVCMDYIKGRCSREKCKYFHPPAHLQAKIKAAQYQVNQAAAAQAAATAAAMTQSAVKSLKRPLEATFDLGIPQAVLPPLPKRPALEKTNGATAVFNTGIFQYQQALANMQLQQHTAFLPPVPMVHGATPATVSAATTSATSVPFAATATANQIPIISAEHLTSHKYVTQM
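MBNL1-His + Biotin-(CUG)12, cpd titration 92 nM–58 uM; Tb anti-His Ab 0.055 ng/ul, SA-XL665 5 nM (final); 60 min RT; ratiometric 665/545 nm, Ex 340 nm; normalized to buffer and full-complex controls.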
uPA surface inh – blocks generation of uPA at the cell surface. cell surface uPA generation assay, qHTS. Potency, µM (highest dose often 38.3 µM), for inactives: at the highest dose activity change, negative = inhibition, actives largely listed as inhibitors. 330,000 tested, 0.31% active; active means well fitted inhibition curve with a large enough effect; inconclusive means small, poorly fitted or top-dose-only effect; inactive means no such curve, though single readings can be large or run the other way; tested in mouse RAW 264.7 cells; further: on the % scale 0 is the no-effect control and ±100 the full control effect; nearly all actives have a fitted effect of over 55% in size
Rab9 prom act – Rab9 promoter activation; Huh7 Rab9 promoter-luciferase reporter, luminescence, 24 h; Potency, µM (titrated, usually from 9.22 µM), for inactives: top-dose activation, negative = inhibition, usual class: activators; 320,000 tested, 2.8% active; further: % of control where 0% means no effect; nearly all actives have a fitted effect of over 60% in size
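Luciferase signal after 10 min detection reagent at ambient indicates Rab9 promoter upregulation; stably transfected Huh7 cells were treated 24 h with compound in DMSO at 37 °C, 5% CO2.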
ELG1 genotox – genotoxicity induction in ELG1-luciferase HEK293T cells. HEK293T ELG1-luciferase reporter, luminescence, 16 h. Potency, µM (titrated, usually from 46 µM), inactives show at the top dose activity change, positive = activation, actives largely listed as activators. 330,000 tested, 1.3% active; further: % of control where 0% means no effect; nearly all actives have a fitted effect of over 60% in size
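16 hr compound incubation (37 °C, 5% CO2) of HEK293T cells carrying luciferase-tagged ELG1; luciferase then measured by ONE-Glo luminescence after 30 min at RT.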
NPC1 prom act – NPC1 promoter activation | Huh7 NPC1 promoter luciferase reporter, 24 h | Potency, µM (doses to about 9.22 µM), inactives show top-dose activation, usual class: activators | 320,000 tested, 2.4% active | AID 485313;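 further: % of control where 0% means no effect; nearly all actives have a fitted effect of over 60% in size; reporter is driven by a mutant NPC1 promoter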
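Huh7 reporter cells (NPC1 promoter driving luciferase) are dosed with compound for 24 h at 37 °C, 5% CO2; luciferase detection reagent is then added and luminescence measured after 10 min at ambient temperature.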
* hit, by the source's call; ? = inconclusive; . = not tested or not shown; & = joins results of further samples; [ ] = remark or other dose. Unless noted, the call rests on the fitted dose curve; in most records, active means well fitted activation curve with a large enough effect; inconclusive means small, poorly fitted or top-dose-only effect; inactive means no such curve, though single readings can be large or run the other way. Potency means the concentration at half of the fitted maximal effect. Only part of the results is shown; the hit share may differ from the screen's.

Field names: A = BRCA1 expr up; B = MBNL1 CUG block; C = uPA surface inh; D = Rab9 prom act; E = ELG1 genotox; F = NPC1 prom act
Molecule: O=[N+]([O-])c1cccc2c([N+](=O)[O-])cccc12
  A = 8.7%; B = .; C = 5.6%; D = -5.6%; E = 4.1%; F = 0.4%

Molecule: CCOCCN1CCN(c2nnc3n2-c2ccc(Cl)cc2C(c2ccccc2Cl)=NC3)CC1
  A = 0.2%; B = -8.0%; C = 1.5%; D = -11.5%; E = 2.1%; F = -3.4%

Molecule: O=C(O)CCCCC1SCC2NC(=O)NC21 (stereo not drawn)
  A = 8.6%; B = 0.1µM*; C = 3.9%; D = -4.3%&-4.4%; E = 2.6%&0.6%; F = 1.6%&-3.3%

Molecule: O=c1ccc2c(O)c3ccoc3cc2o1
  A = 19.1%; B = .; C = -3.0%; D = .; E = 1.4%; F = .

Molecule: O=[N+]([O-])c1ccc(-[n+]2c(-c3ccccc3)cc(-c3ccccc3)cc2-c2ccccc2)cc1
  A = -6.0%; B = ?; C = 3.2%; D = -0.9%; E = -6.6%; F = -4.8%

Molecule: CC[n+]1c(/C=C/N(C)c2ccccc2)sc2ccc(Cl)cc21
  A = -82.5%; B = ?; C = -13.5%; D = -33.9%[inhibitor]; E = -9.2%; F = -31.4%[inhibitor]

Molecule: CCOc1cccc(CNCCc2c(C)[nH]c3ccc(OC(F)(F)F)cc23)c1O
  A = -88.9%; B = 4.2%; C = ?; D = -32.7%[inhibitor]; E = -4.7%; F = -33.0%[inhibitor]

Molecule: C#CCN(C)[C@H](C)Cc1ccccc1
  A = 14.4%; B = -4.3%; C = 8.7%; D = -1.9%; E = .; F = -1.6%

Molecule: N#CC(Br)Br
  A = -10.6%; B = .; C = -9.0%; D = -6.0%; E = -2.3%; F = -2.1%

Molecule: c1cc2c(cc1CCNC1CCCCCC1)OCO2
  A = 0.2%; B = 3.3%; C = 1.6%; D = 27.3%; E = -5.3%; F = -0.9%

Molecule: Cc1ccc(N)c(C)c1
  A = 2.2%; B = .; C = 6.4%; D = -3.5%; E = 0.2%; F = -1.2%

Molecule: O=C(COc1ccc(Cl)cc1)N1CCN(Cc2ccc([N+](=O)[O-])cc2)CC1
  A = -26.0%; B = ?; C = -23.4%; D = -17.8%; E = -3.6%; F = -12.5%

Molecule: C[N+]1=C(/C=C/Nc2ccccc2)C(C)(C)c2ccccc21
  A = -24.4%; B = ?; C = -6.3%; D = 3.7%; E = -5.6%; F = 0.3%

Molecule: COc1ccc(-c2cc(=NCCC(=O)O)c3cc(C)ccc3o2)cc1
  A = .; B = ?; C = -8.7%; D = ?; E = ?; F = ?

Molecule: CCOC(=O)c1c(C)n(Cc2ccco2)c2ccc(O)cc12
  A = 1.3%; B = -16.8%; C = 5.4%; D = .; E = .; F = .

Molecule: Cc1ccc(-c2cc(-c3ccc(C)cc3)[n+](C)o2)cc1
  A = -77.2%; B = -2.3%[11.5 µM]; C = -11.8%; D = -35.1%[inhibitor]; E = -11.6%; F = -25.6%

Molecule: CCOc1ccc(-c2cc(C)[n+](CCc3ccc(OC)c(OC)c3)c(-c3ccc(OCC)cc3)c2)cc1
  A = -82.8%; B = ?; C = -17.4%; D = -22.5%; E = 25.7%; F = -17.7%

Molecule: Fc1ccc(C2CCNCC2COc2ccc3c(c2)OCO3)cc1 (stereo not drawn)
  A = -86.2%; B = 3.5%; C = -7.3%; D = -4.4%; E = -7.1%; F = -10.4%

Molecule: CC(C)OS(C)(=O)=O
  A = -0.8%; B = .; C = 16.8%; D = -4.1%; E = 3.0%; F = -1.0%

Molecule: CCC1(c2cccc(O)c2)CCCCN(C)C1 (stereo not drawn)
  A = 21.8%; B = .; C = -7.3%; D = 1.4%; E = -0.2%; F = -4.3%

Molecule: COc1c2c(cc3c1OCO3)CCN(C)C2
  A = -25.3%; B = .; C = 7.8%; D = 6.6%; E = -5.2%; F = -0.8%

Molecule: Clc1cccc(Cl)c1Cl
  A = 4.5%; B = .; C = 0.4%; D = -4.0%; E = 0.5%; F = -3.6%

Molecule: Oc1ccc(Cl)cc1Cc1cc(Cl)ccc1O
  A = 0.0%; B = -5.3%; C = -16.2%; D = -0.4%; E = 5.2%; F = 0.2%

Molecule: CN[C@@H]1C[C@@H](c2ccc(Cl)c(Cl)c2)c2ccccc21
  A = .; B = 1.9%; C = .; D = -43.3%[inhibitor][46.1 µM]; E = .; F = -36.8%[inhibitor][46.1 µM]

Molecule: Cc1ccc(OCC(=O)N2CCN(Cc3ccc([N+](=O)[O-])cc3)CC2)cc1
  A = -38.4%; B = ?; C = -0.8%; D = -14.1%; E = -3.1%; F = -4.9%

Arranged by heavy-atom count (highest first): some entries from above.
Field names: A = BRCA1 expr up; B = MBNL1 CUG block; C = uPA surface inh; D = Rab9 prom act; E = ELG1 genotox; F = NPC1 prom act
Molecule: O=[N+]([O-])c1ccc(-[n+]2c(-c3ccccc3)cc(-c3ccccc3)cc2-c2ccccc2)cc1
  A = -6.0%; B = ?; C = 3.2%; D = -0.9%; E = -6.6%; F = -4.8%

Molecule: CCOc1cccc(CNCCc2c(C)[nH]c3ccc(OC(F)(F)F)cc23)c1O
  A = -88.9%; B = 4.2%; C = ?; D = -32.7%[inhibitor]; E = -4.7%; F = -33.0%[inhibitor]

Molecule: C[N+]1=C(/C=C/Nc2ccccc2)C(C)(C)c2ccccc21
  A = -24.4%; B = ?; C = -6.3%; D = 3.7%; E = -5.6%; F = 0.3%

Molecule: Cc1ccc(-c2cc(-c3ccc(C)cc3)[n+](C)o2)cc1
  A = -77.2%; B = -2.3%[11.5 µM]; C = -11.8%; D = -35.1%[inhibitor]; E = -11.6%; F = -25.6%

Molecule: c1cc2c(cc1CCNC1CCCCCC1)OCO2
  A = 0.2%; B = 3.3%; C = 1.6%; D = 27.3%; E = -5.3%; F = -0.9%

Molecule: Oc1ccc(Cl)cc1Cc1cc(Cl)ccc1O
  A = 0.0%; B = -5.3%; C = -16.2%; D = -0.4%; E = 5.2%; F = 0.2%

Molecule: O=[N+]([O-])c1cccc2c([N+](=O)[O-])cccc12
  A = 8.7%; B = .; C = 5.6%; D = -5.6%; E = 4.1%; F = 0.4%

Molecule: O=c1ccc2c(O)c3ccoc3cc2o1
  A = 19.1%; B = .; C = -3.0%; D = .; E = 1.4%; F = .

Molecule: Clc1cccc(Cl)c1Cl
  A = 4.5%; B = .; C = 0.4%; D = -4.0%; E = 0.5%; F = -3.6%

Molecule: N#CC(Br)Br
  A = -10.6%; B = .; C = -9.0%; D = -6.0%; E = -2.3%; F = -2.1%

Following part
Field names: A = BRCA1 expr up; B = MBNL1 CUG block; C = uPA surface inh; D = Rab9 prom act; E = ELG1 genotox; F = NPC1 prom act
Molecule: C[C@]12CCC3C(CC[C@H]4C[C@@H](O)CC[C@]34C)C1=CC[C@@H]2O (stereo partly drawn)
  A = -16.4%; B = .; C = .; D = .; E = .; F = .

Molecule: CC(=O)Nc1nnc(S(N)(=O)=O)s1
  A = 12.9%; B = ?; C = 8.4%; D = -1.2%[46.1 µM]; E = -2.5%; F = -1.2%[46.1 µM]

Molecule: CC[N+](CC)(CC)CC
  A = 46.3%; B = 2.5%; C = 8.6%; D = -2.4%[46.1 µM]; E = -1.4%; F = 3.2%[46.1 µM]

Molecule: O=S(=O)(c1ccc(O)cc1)c1ccc(O)cc1
  A = -2.2%; B = -11.0%; C = 17.8%; D = -3.4%; E = 0.8%; F = 1.6%
